VACV Venus inh = qHTS for Stage-Specific Inhibitors of Vaccinia Orthopoxvirus: Venus Reporter Primary qHTS. 0.46% of 330,000 active. Potency, µM (doses to about 36.5 µM), inactives show top-dose activity change, negative = inhibition, actives largely listed as inhibitors. AID 720580, 2013. Vaccinia virus Venus reporter expression, fluorescence; active means well fitted inhibition curve with a large enough effect; inconclusive means small, poorly fitted or top-dose-only effect; inactive means no such curve, though single readings can be large or run the other way; tested in A549 cells; further: nearly all actives have a fitted effect of over 30% in size; inactives centre near -10
Vaccinia mCherry = qHTS for Stage-Specific Inhibitors of Vaccinia Orthopoxvirus: mCherry Reporter Primary qHTS | Vaccinia virus mCherry reporter infection, fluorescence; about a quarter of the inactives have no number | Potency, µM (doses to about 36.5 µM), without a hit: top-dose activity change, negative = inhibition, usual class: inhibitors | 0.63% of 310,000 active; active = well fitted inhibition curve with a large enough effect; inconclusive = small, poorly fitted or top-dose-only effect; inactive = no such curve, though single readings can be large or run the other way; tested in A549 cells; further: nearly all actives have a fitted effect of over 35% in size; inactives centre near -10
Starred values were filed as active, the others as inactive; i = inactive; ? = inconclusive; . = no result given; & = joins results of further samples; [ ] = remark or other dose. On the % scale 0 is the no-effect control and ±100 the full control effect; potency means the concentration at half of the fitted maximal effect.

The opening 3 compounds (preview)
item	structure	VACV Venus inh	Vaccinia mCherry
1	C[C@]12CCC3C(CC[C@H]4C[C@@H](O)CC[C@]34C)C1C/C(=N/O)[C@@H]2O (stereo partly specified)	-16%	-6%
2	COc1cc(OC)c(NS(=O)(=O)c2ccc(Cl)c(C(=O)OC(C)C(=O)N3CCCC3)c2)cc1Cl (stereo unspecified)	?	-12%
3	O=C(Cc1ccc(Cl)cc1Cl)Nc1ccncc1	-14%	i

Results, repeating the preview:
item	structure	VACV Venus inh	Vaccinia mCherry
1	C[C@]12CCC3C(CC[C@H]4C[C@@H](O)CC[C@]34C)C1C/C(=N/O)[C@@H]2O (stereo partly specified)	-16%	-6%
2	COc1cc(OC)c(NS(=O)(=O)c2ccc(Cl)c(C(=O)OC(C)C(=O)N3CCCC3)c2)cc1Cl (stereo unspecified)	?	-12%
3	O=C(Cc1ccc(Cl)cc1Cl)Nc1ccncc1	-14%	i
4	OC(COc1c(Br)cc(Br)cc1Br)CN1CCOCC1 (stereo unspecified)	15%	-10%
5	CCOC(=O)c1c(C)n(C)c2cc(OCCN(CC)CC)ccc12	-18%	-25%
6	CN(C)c1ccc(C(=O)/C=C/c2ccccc2)cc1	?	-22%
7	O=C(CN(c1ccccc1F)S(=O)(=O)c1ccccc1)Nc1ccccc1C(=O)N1CCOCC1	-15%	i
8	CCC(=O)Nc1ccc(-c2nnc(-c3ccccc3)o2)cc1	-26%	-17%
9	COc1cc(/C=C/[N+](=O)[O-])ccc1O	-14%	-6%
10	COc1ccc(Cl)cc1NC(=O)c1cc2c(=O)n3ccccc3nc2s1	-8%	-7%
11	COC(=O)/C=C/C(=O)Nc1cccnc1	23%	.
12	COc1cccc(C2CC(c3cccs3)=NN2S(C)(=O)=O)c1OC (stereo unspecified)	-2%	-9%
13	N/C(=N\OC(=O)COc1ccc2ccccc2c1)c1cccnc1	-13%	i
14	CCNC(=O)c1c(NC(=O)c2cc(-c3cc(C)cc(C)c3O)n[nH]2)sc2c1CCCC2	3%	-1%
15	COc1ccc(-c2cc(C)cc3c2OC(CNC(=O)c2cc(C(C)C)on2)C3)nn1 (stereo unspecified)	5%	-7%
16	CCOc1ccc(OCC)c(NC(=O)CC2Oc3ccccc3NC2=O)c1 (stereo unspecified)	-7%	11%
17	O=C(Nc1ccc(Br)cc1)c1ccc2ncsc2c1	-19%	i
18	COc1cccc(C(=O)/C=C/Nc2ccc(S(=O)(=O)Nc3onc(C)c3C)cc2)c1	0%	i
19	CCCCCSc1nc2c(c(=O)[nH]c(=O)n2C)n1CCc1ccccc1	?	-21%
20	COc1ccc(C(=O)NC(C)c2cnn(-c3ccccn3)c2C)o1 (stereo unspecified)	-19%	i
21	CC1=C(C(=O)OCc2ccccc2)C(c2ccc(C)cc2)NC(=O)N1 (stereo unspecified)	-16%	-4%
22	COC1CCN(Cc2c(C(=O)N3C[C@@H](C)O[C@@H](C)C3)nc3ccc(Cl)cn23)CC1	-11%	i
23	COC(=O)COc1nc(C)c2c(c1C#N)CC(C)(C)OC2	?	.
24	COc1ccc(S(=O)(=O)Oc2ccc3ccccc3c2)cc1	-26%	?
25	CC(=O)Nc1cc(-c2ccccc2)nn1Cc1cccc(Cl)c1	1%	-1%
26	Cc1occc1-c1nnc(SCC(=O)NC2(C#N)CCCC2)n1C	11%	i
27	CC(C)NC(=O)CCCn1cc([N+](=O)[O-])cn1	-1%	11%
28	COc1ccc(S(=O)(=O)N2CCN(Cc3cccc(F)c3)CC2)cc1	3%	i
29	CCN(Cc1ccccc1)C(=O)c1ccc(N(C)S(=O)(=O)c2ccc(C)cc2)cc1	-17%	-1%
30	COc1ccc(S(=O)(=O)NCCc2c[nH]c3ccc(Cl)cc23)cc1	-18%	-21%
31	CC(=O)N1CCN(CC(=O)Nc2cccc(S(=O)(=O)N3CCCCC3)c2)CC1	-1%	i
32	O=C(NC(=S)Nc1cccc(O)c1)c1ccco1	-17%	-3%
33	COc1ccc(NC(=O)CSc2nncs2)cc1S(N)(=O)=O	13%[7.34 µM]	19%[7.34 µM]
34	CCN(CC)C(=O)CSc1nc(OC)cc(=O)[nH]1	-14%	i
35	C=COc1ccc(N2C(=O)c3ccccc3OC2C)cc1 (stereo unspecified)	-20%	-20%
36	CC(OC(=O)c1ccc(Cl)nc1)C(=O)N1CCc2ccccc21 (stereo unspecified)	-12%	4%
37	Nc1cc(C(=O)OCC(=O)N2CCCC2)ccc1Cl	-20%	.
38	COc1ccccc1CCNC(=O)C(=O)Nc1cc2c3c(c1)C(C)C(=O)N3CCC2 (stereo unspecified)	-23%	-12%
39	O=C(CCCOc1ccc(Cl)cc1Cl)NCc1ccccn1	0%	i
40	CCC(C)(C)n1nnnc1C(c1cc2cccc(C)c2[nH]c1=O)N1CCCC1 (stereo unspecified)	-15%	?

Gathered by group: those above with four or more nitrogen atoms
item	structure	VACV Venus inh	Vaccinia mCherry
14	CCNC(=O)c1c(NC(=O)c2cc(-c3cc(C)cc(C)c3O)n[nH]2)sc2c1CCCC2	3%	-1%
15	COc1ccc(-c2cc(C)cc3c2OC(CNC(=O)c2cc(C(C)C)on2)C3)nn1 (stereo unspecified)	5%	-7%
19	CCCCCSc1nc2c(c(=O)[nH]c(=O)n2C)n1CCc1ccccc1	?	-21%
20	COc1ccc(C(=O)NC(C)c2cnn(-c3ccccn3)c2C)o1 (stereo unspecified)	-19%	i
22	COC1CCN(Cc2c(C(=O)N3C[C@@H](C)O[C@@H](C)C3)nc3ccc(Cl)cn23)CC1	-11%	i
26	Cc1occc1-c1nnc(SCC(=O)NC2(C#N)CCCC2)n1C	11%	i
27	CC(C)NC(=O)CCCn1cc([N+](=O)[O-])cn1	-1%	11%
31	CC(=O)N1CCN(CC(=O)Nc2cccc(S(=O)(=O)N3CCCCC3)c2)CC1	-1%	i
33	COc1ccc(NC(=O)CSc2nncs2)cc1S(N)(=O)=O	13%[7.34 µM]	19%[7.34 µM]
40	CCC(C)(C)n1nnnc1C(c1cc2cccc(C)c2[nH]c1=O)N1CCCC1 (stereo unspecified)	-15%	?

Additional entries
item	structure	VACV Venus inh	Vaccinia mCherry
41	CN1CC2=CC(O)CC3Oc4c(O)ccc(c4[C@]23C)C1 (stereo partly specified)	-13%	-2%
42	CCCCC(=NCCc1c(C)[nH]c2ccccc12)C1=C(O)CC(c2ccccc2)CC1=O (stereo unspecified)	-21%	-17%
43	CC1CCN(C(=O)CN2CCSc3ccccc32)CC1	6%	-7%
44	COc1ccc(NC(=O)C2=C(C)Nc3nc(CCCO)nn3C2c2ccc(OC)c(OC)c2)cc1 (stereo unspecified)	9%	i
45	Cc1cccc(NC(=S)NNC(=O)COc2ccc(Cl)cc2Cl)c1	-28%	i
46	O=C(O)c1ccccc1NC(=O)C1CCN(S(=O)(=O)c2cccc3nsnc23)CC1	-18%	-2%
47	O=C(COC(=O)c1ccccc1)c1ccc(Br)cc1	-12%	i
48	CCCOc1cccc(C2C(C(=O)c3ccc(C)o3)=C(O)C(=O)N2c2nc(C)c(C(C)=O)s2)c1 (stereo unspecified)	13%	-12%
49	CCCC(CCC(=O)Nc1ccc(C(=O)OCC)cc1)C(=O)O (stereo unspecified)	-4%	.
50	COC(=O)[C@H]1C[C@@H]1[C@H](NC(=O)[C@H]1C[C@@H]1[C@H](NC(=O)OCc1ccccc1)c1ccccc1)c1ccccc1	-27%	i
51	CCCCOC(=O)c1ccc(Nc2nc3ccc(C)cc3n3cnnc23)cc1	-3%	-17%
52	Cc1ccc2oc(=O)c3cnn(CC(=O)Nc4ccc(Br)cc4C)c3c2c1	-10%	-4%
53	CC(=O)c1ccc(S(=O)(=O)Nc2cccc(-c3ccc(N4CCCCCC4)nn3)c2)cc1	-15%	-15%
54	S=C(NCC1CCCO1)Nc1cccc2ccccc12 (stereo unspecified)	-15%	-3%
55	COc1ccccc1C(=O)Nc1ccc(S(=O)(=O)Nc2cc(C)on2)cc1	-1%	.
56	COc1ccc(C(=O)C2CCCN(C(=O)/C=C/c3cnc[nH]3)C2)c(C)c1 (stereo unspecified)	-12%	-17%
57	Cc1ccc(C(=O)O/N=C(\N)c2ccccn2)cc1C	-6%	1%
58	COc1ccc2cc(C=O)n(C)c2c1	-2%	i
59	COc1ccc(NC(=O)c2sc(NC(=O)COc3ccccc3)nc2C)cc1	-9%	i
60	COc1cc(-c2nc(-c3ccccn3)no2)cc(OC)c1OC	-14%	-23%
61	Cc1ccc(-n2nc3c(c2NC(=O)/C=C\c2ccc4c(c2)OCO4)CSC3)cc1	1%	8%
62	Cc1cc(C)c(C)c(S(=O)(=O)N2CCN(C(=O)C3CCC3)CC2)c1C	-9%	-13%
63	COc1cc(NC(=O)c2cccs2)c(OC)cc1NC(=O)CCn1nnc2ccccc21	-2%	-20%
64	CCOC(=O)C1CCCN(C2CC(=O)N(c3ccc(C)cc3)C2=O)C1 (stereo unspecified)	-1%	-19%
65	CC(C)n1nnnc1C1c2ccccc2C(=O)N1CCc1ccccc1F (stereo unspecified)	1%	30%[activator]
66	CCn1ncc(C2=NOC(C(=O)Nc3cc(OC)c(Cl)cc3OC)C2)c1C (stereo unspecified)	-1%	i
67	O=C(Nc1ncccn1)c1ccc([N+](=O)[O-])o1	-24%	-16%
68	CCn1c(-c2ccccc2F)nc2cc(C(=O)NCC3CCOCC3)cc(NC(C)=O)c21	-2%	-12%
69	CCOC(=O)c1nn(-c2ccccc2)c(=O)cc1OCC(=O)Nc1ccccc1OCC	-4%	-10%
70	CC(C)c1ccc(S(=O)(=O)Nc2ccc(O)c(Sc3nc4ccccc4s3)c2)cc1	-14%	-10%
71	O=C(NCc1ccccn1)C(=O)N/N=C/c1ccccc1O	-15%	-6%
72	CC(=O)c1cn(CC(=O)NCc2cccnc2)c2ccccc12	-13%	-13%
73	Cc1ccc2c(CC(=O)NC3=NCCS3)coc2c1	-9%	i
74	COCCOC(=O)c1c(NC(=O)CNCc2ccco2)sc(C(N)=O)c1C	-11%	-20%
75	CC(=O)c1ccc(OCC(O)CN2CCOCC2)cc1 (stereo unspecified)	3%	-13%
76	COc1ccc(/C=C(\CC(=O)O)c2nc3ccccc3s2)cc1O	6%	1%
77	CC(=O)NC1=NN(C(C)=O)C(C)(CC(=O)OC(C)(C)C)S1 (stereo unspecified)	0%	-2%
78	C=CCn1c(SCC(=O)c2ccc(O)c(O)c2)nnc1-c1cccc(OC)c1	-8%	?
79	CCOC(=O)c1[nH]c2ccc(OC)cc2c1NC(=O)c1ccc(OC)c(OC)c1	-14%	i
80	Nc1nc(SCC(=O)NCC2CCCO2)n[nH]1 (stereo unspecified)	-16%	-13%
81	O=C(NCc1ccccc1C(F)(F)F)C1CC(c2cc(C(F)(F)F)cc(C(F)(F)F)c2)=NO1 (stereo unspecified)	-6%	i
82	CCCC1(CCC)NC(=O)N(CC(=O)N2CCN(C(=O)c3ccco3)CC2)C1=O	-1%	-13%
83	Cc1cccc(Nc2nc(N3CCOCC3)nc(N3CCOCC3)n2)c1	-28%	-24%
84	O=C1/C(=C/c2ccncc2)SC(=S)N1C1CCCCC1	-10%	i
85	O=C(O)c1cc(-c2c[nH]c3ccccc23)nc2ccc3ccccc3c12	-3%	-8%
86	O=C(CSc1nnc(NC(=O)c2ccco2)s1)Nc1ccccc1	-4%	i
87	c1ccc(N2CCN(C3CCSC3)CC2)cc1 (stereo unspecified)	-12%	-10%
88	COc1ccc(S(=O)(=O)Nc2ccc3c(c2)C(=O)N([C@H](C)CO)C[C@H](C)[C@@H](CN(C)C(=O)Nc2ccccc2)O3)cc1	-14%	i
89	COc1ccc(-c2nc3cccc(C)n3c2NCC2CCCO2)cc1O (stereo unspecified)	-10%	-11%
90	CCOc1ccc(S(=O)(=O)Nc2cccc(C(=O)N3CC(C)OC(C)C3)c2)cc1 (stereo unspecified)	-13%	-15%
91	O=S(=O)(Cc1ccccc1)N1CCN(C/C=C/c2ccccc2)CC1	-7%	-16%
92	CCCC(=O)N(CCN1CCOCC1)c1nc2ccc(OCC)cc2s1	-14%	-15%
93	CCCN(CC(=O)Nc1ccccc1Br)CC(=O)Nc1ccc(F)c(F)c1F	-19%	-8%
94	COc1ccccc1CNC(=O)c1cnn2c(C(F)F)cc(C)nc12	-28%	?
95	COc1ccsc1NC(=O)OCc1ccc(Cl)cc1	0%	-5%
96	O=C(NN1C(=O)C2C(C1=O)C1C=CC2C12CC2)c1ccncc1 (stereo unspecified)	?	?

Next part
item	structure	VACV Venus inh	Vaccinia mCherry
97	COC(=O)CSc1nc2sc3c(c2c(=O)n1-c1ccc(OC)cc1)CCN(C)C3	-8%	i
98	CC(OC(=O)c1cc[n+]([O-])cc1)C(=O)NCc1ccccc1 (stereo unspecified)	-16%	i
99	COc1cccc(Cn2c(Cn3c(-c4cnccn4)nc4ccccc43)nc3ccccc32)c1	7%	-4%
100	Cc1ccc([N+](=O)[O-])cc1NC(=O)CNC1CCCCC1	-1%	i
101	CC(C)c1ccc(/C=N/n2cnnc2)cc1	-6%	-13%
102	CCS(=O)(=O)N1CCCC(C(=O)NC2CCCC2)C1 (stereo unspecified)	-8%	.
103	COCCNC(=O)C1CC(c2cccc(F)c2)=NO1 (stereo unspecified)	-4%	-11%
104	O=S(=O)(Nc1c(F)cccc1F)c1ccc2c(c1)OCCO2	1%&9%	20%&8%

Bioassay records: PubChem, National Center for Advancing Translational Sciences (NCATS)

Rows are unselected, and some 0.82% of all compounds hit somewhere here.
